AmpC nodet inh: AmpC beta-lactamase inhibition, detergent-free assay; P00811; AmpC nitrocefin hydrolysis, absorbance 480 nm, no detergent; potencies from a single point are estimates; Potency, µM (titrated, usually from 28.7 µM), without a hit: at the top dose activity change, negative = inhibition; 71,000 compounds, 1.8% hits; AID 585; active = falling curve, for most hits resting on a single point; inconclusive = weak or doubtful change; inactive = flat or rising curve; note: % of control where 0% means no effect; about half of the hits show no inhibition at the top dose; a quarter of the inactives give rising signals
Target sequence (P00811 whole entry, looked up): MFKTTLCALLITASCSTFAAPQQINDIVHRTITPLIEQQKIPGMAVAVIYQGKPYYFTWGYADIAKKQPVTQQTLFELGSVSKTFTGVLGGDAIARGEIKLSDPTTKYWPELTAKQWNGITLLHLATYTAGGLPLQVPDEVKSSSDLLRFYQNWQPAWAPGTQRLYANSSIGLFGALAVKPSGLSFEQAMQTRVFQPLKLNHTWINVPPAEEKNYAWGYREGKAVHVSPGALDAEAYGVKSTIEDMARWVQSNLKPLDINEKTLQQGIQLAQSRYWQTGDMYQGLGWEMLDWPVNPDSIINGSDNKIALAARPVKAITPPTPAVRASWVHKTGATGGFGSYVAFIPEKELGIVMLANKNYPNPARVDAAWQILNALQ
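Enzyme, pH 7.0 phosphate. Compound titrations were pre-incubated with AmpC for 15 min at room temperature before nitrocefin (stock 800 uM) addition; product formation was recorded at 480 nm every 20 s for 4 min.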
* = called active by the depositor; ? = inconclusive; [ ] = dose if it differs, or a comment. Potency is the fitted concentration of half-maximal effect. Only part of the results is shown (hit frequency here may not be typical).

SMILES | AmpC nodet inh
CCOC(=O)C1=C(c2ccccc2)N=C2SCC(=O)N2C1c1ccc2c(c1)OCO2 (centres undefined) | 11%
O=C(NCc1ccco1)C(c1ccncc1)N(CCC1=CCCCC1)C(=O)Cn1nnc2ccccc21 (centres undefined) | 82%
COc1ccc(CCn2c(SCC(=O)Nc3cc(C)on3)nc3ccsc3c2=O)cc1OC | 8%
CCOC(=O)N1CCN(c2ncnc3c2cnn3-c2ccc(Cl)cc2)CC1 | 55%
CCOC(=O)c1c(C)oc2c1c(/C=N/c1ccccn1)c(O)c1ccccc12 | 46%
COc1ccc2[nH]cc(CCNc3ccnc(-c4ccccc4C(F)(F)F)n3)c2c1 | 1%
Cc1cc(Cl)ccc1N1C(=O)CC(SCCC(=O)O)C1=O (centres undefined) | 8%
CC(C)OC(=O)C(C#N)c1nc2ccccc2nc1N1CCN(Cc2ccccc2)CC1 (centres undefined) | 68%
CCc1nccn1S(=O)(=O)c1ccc2ccccc2c1 | -12%
CC1CCCCC1NS(=O)(=O)c1ccc(S(=O)(=O)N2CCCC2)cc1 (centres undefined) | 12%
C[C@]12CCC3c4ccc(OCC(=O)O)cc4CCC3C1CCC2=O (some centres undefined) | 3%[5.75 µM]
COC(=O)CSc1nnc(C)n1-c1cccc(C#N)c1 | -3%
O=c1nc(N2CCOCC2)ccn1-c1nc(-c2ccccc2)oc1-c1ccccc1 | 86%
COc1ccc(N2CC(C(=O)Nc3ncccc3C)CC2=O)cc1 (centres undefined) | -8%
Cc1onc(-c2ccccc2)c1C(=O)NC(CC(=O)O)c1ccc(OC(C)C)cc1 (centres undefined) | 14%
CSc1nc(C)cc(OCC#N)n1 | -3%
CCn1c(SCC(=O)Nc2ccccc2C)nnc1-c1ccccc1O | -15%
Cc1nc2nc[nH]n2c(=O)c1NC(=O)c1cccc(OCC(C)C)c1 | -13%
CCCN1CCN(CCCNC(=O)C2CCCN(c3nnc(-n4cccc4)s3)C2)CC1 (centres undefined) | 4%
Cn1nnc(NC(=O)CSc2nnnn2-c2ccc(F)cc2)n1 | 8%

A draw from above in order of molar mass, smallest number first:
SMILES | AmpC nodet inh
CCc1nccn1S(=O)(=O)c1ccc2ccccc2c1 | -12%
C[C@]12CCC3c4ccc(OCC(=O)O)cc4CCC3C1CCC2=O (some centres undefined) | 3%[5.75 µM]
CCn1c(SCC(=O)Nc2ccccc2C)nnc1-c1ccccc1O | -15%
COc1ccc2[nH]cc(CCNc3ccnc(-c4ccccc4C(F)(F)F)n3)c2c1 | 1%
CC(C)OC(=O)C(C#N)c1nc2ccccc2nc1N1CCN(Cc2ccccc2)CC1 (centres undefined) | 68%

Next entries follow.
SMILES | AmpC nodet inh
CC1CCN(C(=O)C2CC(c3ccc(F)cc3)=NO2)CC1 (centres undefined) | 24%
CC(=O)NC(CC(C)C)C(=O)NC(=O)NCc1ccccc1 (centres undefined) | 13%
COc1ccc(-c2nc3cnc(Oc4cccc(Cl)c4)nc3n(CCC#N)c2=O)cc1 | 13%
COc1ccc(-c2c(C)oc3c(CN4CCN(C)CC4)c(O)ccc3c2=O)cc1 | 25%
Cc1cc(C(=O)OCc2nnc(-c3ccccc3)o2)c(C)n1-c1ccccc1 | 13%
O=C(Cc1nc(-c2ccc(Br)s2)cs1)NCCN1CCOCC1 | 83%
COc1ccc(N2CCN(CC(=O)N3CCC(C)CC3)CC2)cc1 | 35%
Cc1cccc(Nc2n[nH]c(=S)s2)c1C | ?
Cn1c(CSc2nc3ccccc3s2)n[nH]c1=S | -7%
Cc1nn2c(-c3ccco3)nnc2c2ccccc12 | 25%
CCOC(=O)c1ccc(COC(=O)c2cc3ccccc3oc2=O)o1 | 6%
O=C1C2C3C=CC(C3)C2C(=O)N1c1ccc2c(c1)CCC2 (centres undefined) | 4%
c1nc(NC2CCCCCC2)c2[nH]cnc2n1 | 10%
O=C(COC(=O)c1n[nH]c2ccccc12)NC(=O)NC12CC3CC(CC(C3)C1)C2 | ?
Cc1nc2ncnn2c(N2CCN(c3cccc(C(F)(F)F)c3)CC2)c1C | 118%
N#CC1=C(c2ccccc2)N=P(N2CCOCC2)(N2CCOCC2)N=C1N1CCOCC1 | -12%
Cc1nc2c(F)c(F)c(C(F)(F)F)c(F)c2[nH]1 | -4%
O=C(CSc1nc2c(c(=O)n1-c1ccc(F)cc1)SCC2)NCc1ccco1 | 5%
O=C(CSc1nc2ncccc2[nH]1)c1ccc(F)cc1 | -2%
Cc1ccc(S(=O)(=O)Nc2cccc3ncccc23)s1 | 11%
O=C(Nc1nc(-c2ccc3c(c2)OCCO3)cs1)c1ccc(S(=O)(=O)N2CCCCC2)cc1 | -19%
CCN(CC)S(=O)(=O)c1csc(C(=O)Nc2ccccn2)c1 | -9%
COc1ccc(-c2cc(=O)oc3cc(OCc4nn[nH]n4)ccc23)cc1 | 0%
Cc1cc(N)n(-c2nc(-c3cccnc3)nc3ccccc23)n1 | 46%
N#Cc1cccc(-c2nc3cnc(N4CCOCC4)nc3n(C3CC3)c2=O)c1 | 7%
CSc1ccc(Cn2nnc(C(=O)NCc3ccccc3)c2N)cc1 | -22%
Cc1ccc(SCC(=O)N2CC(C)OC(C)C2)cc1 (centres undefined) | 1%
CCC(C)c1c(O)nc(SCC(=O)c2ccccc2)[nH]c1=O (centres undefined) | -2%
CCN(CC(=O)N1CCOCC1)S(=O)(=O)c1ccc(C)cc1 | -6%
CSC(=Nc1ccccc1)c1c(O)n(C)c(=O)n(C)c1=O | -7%
COc1ccc(-c2cc(-c3c(O)c(OC)c4occc4c3OC)[nH]n2)cc1OC | 97%
COc1cccc(NC(=O)Cc2nnc(SCCOc3ccccc3)n2C)c1 | 24%
Cc1ccc(CSc2nnc(-c3cccs3)n2C)cc1 | -4%
CC1(C)SCC2C(=O)N3C(CSC3(C)C)C(=O)N21 (centres undefined) | 1%
c1ccc(-n2nnnc2OCCOc2nnnn2-c2ccccc2)cc1 | 29%
CC(=O)c1cccc(NC(=O)c2ccc(N(C)S(C)(=O)=O)cc2)c1 | 6%
COC(=O)CN1C(=O)CC(C)(C)S(=O)c2ccccc21 (centres undefined) | -2%
CCOCCOCC | 15%
Cc1ccccc1-n1c(SCc2cc(=O)n3ccccc3n2)nc2[nH]ncc2c1=O | 42%
COc1cccc(NC(=O)CNC(=O)c2ccccc2)c1 | -2%

Reprinted at random: 2 entries already listed.
SMILES | AmpC nodet inh
CC1(C)SCC2C(=O)N3C(CSC3(C)C)C(=O)N21 (centres undefined) | 1%
Cc1ccccc1-n1c(SCc2cc(=O)n3ccccc3n2)nc2[nH]ncc2c1=O | 42%

The listing picks up with the 6 entries that preceded the break.
SMILES | AmpC nodet inh
c1ccc(-n2nnnc2OCCOc2nnnn2-c2ccccc2)cc1 | 29%
CC(=O)c1cccc(NC(=O)c2ccc(N(C)S(C)(=O)=O)cc2)c1 | 6%
COC(=O)CN1C(=O)CC(C)(C)S(=O)c2ccccc21 (centres undefined) | -2%
CCOCCOCC | 15%
Cc1ccccc1-n1c(SCc2cc(=O)n3ccccc3n2)nc2[nH]ncc2c1=O | 42%
COc1cccc(NC(=O)CNC(=O)c2ccccc2)c1 | -2%
C=C[C@]12CN(C)[C@H]3C1[C@@]1(C(=O)Nc4ccccc41)[C@H]1C[C@H]2[C@H]3CO1 | -7%[12.8 µM]
CCOc1ccccc1NC(=O)CC1Nc2cc(C)c(C)cc2NC1=O (centres undefined) | -17%
Cc1cccc(-n2c(O)c(C=Nc3ccc4c(c3)OCO4)c3ccccc3c2=O)n1 | 117%
O=S(=O)(N1CCOCC1)n1nnc2ccccc21 | -10%
O=C(NC1CCCCC1)c1ccc(CNc2ccccc2)o1 | 12%
CCc1cccc(NC(=O)c2snc3c(=O)[nH]cnc23)c1 | -11%
Cn1cc(CNC(=O)C2c3ccccc3Oc3ccccc32)cn1 | 22%
COc1ccc(CN2CCN(c3cc(C)nc4c5c(C)cc(C)nc5nn34)CC2)cc1F | 34%
CCN(CC)C(=O)C1CCCN(Cc2cccc(F)c2)C1 (centres undefined) | 3%
CCOc1ccc(C2C(C#N)=C(N)N3C(=C2C#N)Sc2ccccc23)cc1 (centres undefined) | -9%
O=C(c1cccc(COCC(F)(F)C(F)F)c1)N1CCN(c2ccccc2)CC1 | 56%
CS(=O)(=O)N(CCc1ccccc1)CC(=O)Nc1ccc2c(c1)OCO2 | -8%
O=c1c2nnn(Cc3ccc(Cl)cc3)c2ncn1Cc1ccc(F)cc1 | 1%
CCN[C@@H]1CN(CCCOC)S(=O)(=O)c2sc(S(N)(=O)=O)cc21 | -3%[12.8 µM]
Cn1c(=O)oc2cc(S(=O)(=O)N3CCN(c4ccccc4)CC3)ccc21 | 1%
Cn1c(SCC(=O)NCc2ccccc2)nnc1C1CC1 | -5%
CC1=C(C(=O)OCc2ccccc2)C(c2ccco2)n2ncnc2N1 (centres undefined) | 4µM*[single pt active]
Cc1cccc(-n2nc3c(c2NC(=O)c2ccc(Br)o2)CSC3)c1 | 10µM*
CCCc1nnc(NC(=O)CN2CCOCC2)s1 | -6%
CC(=O)Nc1cccc(NC(=O)c2c(-c3ccccc3)noc2C)c1 | -6%

Given as tab-separated lines: part of the list above
canonical_smiles	AmpC nodet inh
Cc1nc2c(F)c(F)c(C(F)(F)F)c(F)c2[nH]1	-4%
O=C(CSc1nc2c(c(=O)n1-c1ccc(F)cc1)SCC2)NCc1ccco1	5%
O=C(CSc1nc2ncccc2[nH]1)c1ccc(F)cc1	-2%

Later entries.
SMILES | AmpC nodet inh
COc1ccc(CC(=O)NCc2ccccc2)cc1S(=O)(=O)N1CCOCC1 | -1%
CCCc1ncc(C(O)c2cccc3ccccc23)n1C (centres undefined) | 6%
CCCc1cc(=O)n2[nH]c(NCc3c(Cl)cccc3Cl)nc2n1 | ?
Cc1ccccc1Nc1nc(N)nc(CN2CCN(c3ccccn3)CC2)n1 | 20%
Cc1ccc(-c2nnn(CC(=O)NCc3ccccc3)n2)c(-n2cnnn2)c1 | -10%
Cc1ccc(C(=O)Nc2ccc(N3CCOCC3)cc2)cc1 | 1%
O=c1[nH]cnc2[nH]cc(CN3CCCCC3)c12 | -2%[5.75 µM]
O=C(Cn1cnc2c(nnn2Cc2ccccc2)c1=O)c1ccc(Cl)cc1 | -5%
CN(N=O)C(=O)N[C@H]1[C@@H](O)[C@H](O)[C@H](CO)O[C@@H]1O | -4%[12.8 µM]
O=C(CCCn1c(SCC(=O)c2ccc(F)cc2)nc2ccccc2c1=O)NCc1ccco1 | -3%
O=C(O)CC1(Cc2nc(-c3cccs3)no2)CCCC1 | -11%
COc1ccc(N2C(=O)CCC(C(=O)NCCN3CCOCC3)C2c2ccc(OC)c(OC)c2)cc1 (centres undefined) | 16%
COc1ccc(Nc2cc(C(=O)NCCCN3CCN(C)CC3)c3ccccc3n2)c(OC)c1 | 65%
O=C(NCCCN1CCCCCC1)C1CC(=O)N(C2CCCC2)C1 (centres undefined) | 2%
O=C1[C@@H]2Cc3ccccc3CN2C(=O)N1c1cccc(F)c1 | 6%
CCNc1ncc2nc(-c3ccc(F)cc3)c(=O)n(Cc3ccc(F)cc3)c2n1 | 0%
COc1ccc(C2C(C(=O)Nc3cccnc3)=C(C)Nc3nc(-c4cccs4)nn32)cc1OC (centres undefined) | 91%
Cc1cc(C(F)F)n2nc(C(=O)Nc3ccc(S(=O)(=O)N4CCCC4)cc3)nc2n1 | 13%
CCOC(=O)c1nn(-c2ccccc2)c(=O)c2c(N)scc12 | -9%
Cc1cccc(C)c1NC(=O)C(NC=O)c1ccc(N(C)C)cc1 (centres undefined) | -5%
O=C(NCCc1cn2ccsc2n1)C1CCCCC1 | 6%
CCOC(=O)NC(Nc1nc2ccccc2s1)(C(=O)OCC)C(F)(F)F (centres undefined) | 15%
CC(NC(=O)c1cc2c(=O)n(C)c3ccccc3c2n1C)c1ccc2c(c1)OCCO2 (centres undefined) | 6%
CCCc1[nH]nc2c1C(CCc1ccccc1)C(C#N)=C(N)O2 (centres undefined) | -14%
COc1ccc(/C(O)=C2/C(=O)C(=O)N(CCCC(=O)O)C2c2ccc(OC)c(OC)c2)cc1 (centres undefined) | -13%
Cc1cccc(Nc2nc(N)nc(CN3CCN(Cc4ccc5c(c4)OCO5)CC3)n2)c1 | 69%
O=C(Oc1nsnc1N1CCCCC1)N1CCOCC1 | 15%
Cc1noc(C)c1CSc1nc2ccccc2n1C | 20%
Cc1ccc(-c2cnc(NC(=O)CCC(=O)N3CCCCC3)n2C)cc1 | 30%
C#CCN(C)CCCOc1ccc(Cl)cc1Cl | 30%[12.8 µM]
Cc1ccc(C(=O)Nc2ccccc2N2CCN(C(=O)C(C)C)CC2)cc1C | 83%
CCOC(=O)[C@@H](O)Cc1cnc2ccccc2n1 | -3%[5.75 µM]
CSc1cccc(NC(=O)Cn2cccc2)c1 | -14%
O=C(c1ccco1)N1CCN(c2c(-c3ccccc3)c3cc(Cl)ccc3[nH]c2=O)CC1 | 111%
CCC1(CC)NC(=O)N(CC(=O)OCC(=O)Nc2cc(C)ccc2C)C1=O | 1%
CC(C)C1N(c2ccccc2)C(N)=C(C#N)C1(C#N)C#N (centres undefined) | -5%
COc1ccc(C2CC(c3cc(Br)ccc3F)n3nnnc3N2)cc1 (centres undefined) | 26%
CCOC(=O)N1CCN(C(=O)c2oc3ccc(S(=O)(=O)N4CCCCC4)cc3c2C)CC1 | 121%
CC1(C)CC(=O)C2=C(C1)Nc1ccccc1NC2c1cccnc1 (centres undefined) | -8%
O=C(OC1CCCCC1)c1ccc2c(c1)C1C=CCC1C(C(=O)O)N2 (centres undefined) | ?
CCCn1c(NCc2cccc(OC)c2O)nc2ccccc21 | -7%
